# Screens as filed in PubChem.
# NOMO-1 viab – STK33 inhibitor candidate reducing NOMO-1 cell viability | hit rate 7.5% among 37,000 | NOMO-1 AML viability, CellTiter-Glo luminescence, 72 h | inhibition, % (no concentration beside the values);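 active means most replicates above 80%; inconclusive means exactly half above 80%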;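 further: wells of about 30 µL received 25 nL stock; 0% = median of vehicle wells and 100% = reference inhibitor level; the first replicate is given; inactives centre near 10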
# * = called active by the depositor; ? = inconclusive. Some of the compounds tested; the hit share may differ from the screen's.
mol	NOMO-1 viab
C[C@H]1CN([C@@H](C)CO)C(=O)c2cc(NC(=O)Cn3cnnn3)ccc2O[C@@H]1CN(C)S(=O)(=O)c1cn(C)cn1	22
C[C@H](CO)N1C[C@H](C)[C@H](CN(C)C(=O)Nc2ccc3c(c2)OCO3)Oc2ccc(NC(=O)Cc3cn(C)c4ccccc34)cc2C1=O	20
O=C(NCc1ccccn1)C(=O)Nc1cccc(Cl)c1Cl	-12
C[C@@H]1CN([C@@H](C)CO)C(=O)c2cccc(NC(=O)C3CCCCC3)c2O[C@H]1CN(C)S(=O)(=O)c1cccs1	-3
Cc1ccc(Cl)cc1NC(=O)CSc1cc(C)c2cccc(C)c2n1	?
COc1ccccc1-n1c(SCC(=O)c2ccc(Cl)cc2)nc2ccccc2c1=O	25
O[C@H]1C=C2CCN3Cc4cc5c(cc4C(C23)[C@@H]1O)OCO5 (some centres not stated)	110*
COC(=O)COc1cccc(NC(=O)c2cc(OC)cc(OC)c2)c1	109*
Cc1noc(C)c1S(=O)(=O)Nc1ccc2c(c1)C(=O)N([C@H](C)CO)C[C@H](C)[C@@H](CN(C)Cc1ccc(C(F)(F)F)cc1)OCCCC[C@@H](C)O2	44
CC(C)NC(=O)Nc1ccc2c(c1)CC(=O)N([C@@H](C)CO)C[C@H](C)[C@@H](CN(C)Cc1ccc(C(F)(F)F)cc1)O2	12
Cc1ccc(S(=O)(=O)Nc2ccc3c(c2)CC(=O)N([C@@H](C)CO)C[C@@H](C)[C@@H](CN(C)C(=O)Nc2ccccc2)O3)cc1	15
O=C(CC1C(=O)NCCN1C(=O)Nc1ccccc1)Nc1cccc(C(F)(F)F)c1 (configuration not stated)	-13
CNC[C@H]1Oc2ccc(NC(=O)Nc3ccc(OC)cc3)cc2CC(=O)N([C@@H](C)CO)C[C@H]1C	12
C[C@H]1CN([C@@H](C)CO)C(=O)c2cc(NS(=O)(=O)c3ccc(F)cc3)ccc2O[C@@H]1CN(C)C(=O)Nc1ccc(C(F)(F)F)cc1	37
CCOC(=O)c1c(NC(=O)CSc2ncn[nH]2)sc(C)c1C	19
CNC[C@@H]1OCCCC[C@@H](C)Oc2ccc(NC(=O)Nc3ccc4c(c3)OCO4)cc2C(=O)N([C@H](C)CO)C[C@@H]1C	-2
CCn1c(SCC(=O)c2ccc(OC)cc2)nnc1-c1cccs1	30
COc1ccc(-c2cc3ccccc3oc2=O)cc1NC(=O)COc1ccc(Br)cc1	19
C[C@H](CO)N1C[C@H](C)[C@@H](CN(C)C)Oc2ccc(NS(=O)(=O)c3ccc(Cl)cc3)cc2C1=O	2
CNc1cc(=O)n(-c2ccccc2)c(=O)n1-c1ccccc1	-23
CCc1nc2sc3c(c2c2nnc(SCC(=O)Nc4ccccc4)n12)CCC3	-17
C[C@H](CO)N1C[C@H](C)[C@H](CN(C)C(=O)Nc2ccc3c(c2)OCO3)Oc2ccc(NS(=O)(=O)c3cn(C)cn3)cc2CC1=O	15
C[C@@H]1CN([C@@H](C)CO)C(=O)c2cc(NC(=O)C3CC3)ccc2O[C@H]1CN(C)C(=O)Nc1ccc(C(F)(F)F)cc1	-16
CCN(CC)CCOC(=O)c1cc(Cl)c(N)cc1OC	-7
Cc1noc(C)c1NC(=O)Nc1cccc2c1O[C@@H](CN(C)Cc1ccc(C(=O)Nc3ccccc3N)cc1)[C@@H](C)CN([C@H](C)CO)C2=O	14
COc1ccc(C(=O)NCc2ccc(C#N)cc2)cc1OC	51
c1ccc(CCNc2ncnc3scc(C4COc5ccccc5O4)c23)cc1 (configuration not stated)	60
Cc1ccc(S(=O)(=O)NCC(=O)Nc2cccc([N+](=O)[O-])c2)cc1	19
C[C@H]1CN([C@@H](C)CO)C(=O)c2cccc(NS(=O)(=O)c3ccc(Cl)cc3)c2O[C@H]1CN(C)Cc1ccc(Cl)c(Cl)c1	35
Cc1noc(C)c1NC(=O)N(C)C[C@@H]1Oc2ccc(NS(=O)(=O)c3ccc(F)cc3)cc2CC(=O)N([C@H](C)CO)C[C@@H]1C	22
COc1ccccc1NC(=O)C1=C(C)Nc2nnnn2C1c1cccnc1 (configuration not stated)	9
CN(C)CCn1nnnc1SCC1=C(C(=O)O)N2C(=O)[C@@H](NC(=O)Cc3csc(N)n3)[C@H]2SC1	14
CNC(=O)CN(c1ccc(C)cc1)S(=O)(=O)c1ccccc1	15
C[C@H]1CN([C@@H](C)CO)C(=O)c2cc(NC(=O)CCCCCC(=O)Nc3ccccc3N)ccc2O[C@@H]1CN(C)C(=O)Nc1ccc(F)cc1	-20
O=C(c1ccco1)N(Cc1ccco1)c1ccc(O)cc1	-3
CNC[C@H]1Oc2c(NC(=O)C3CCOCC3)cccc2C(=O)N([C@H](C)CO)C[C@@H]1C	18
COC(=O)c1c(NC(=S)Nc2cc3oc4ccccc4c3cc2OC)sc2c1CCC2	-2
C[C@@H]1CCCCO[C@H](CN(C)C(=O)c2ccncc2)[C@@H](C)CN([C@H](C)CO)C(=O)c2cc(NS(=O)(=O)c3ccc(Cl)cc3)ccc2O1	24
CS(=O)(=O)N1N=C(c2ccc(Br)cc2)CC1c1cc2ccccc2nc1Cl (configuration not stated)	55
C[C@@H]1CN([C@H](C)CO)C(=O)c2cc(NC(=O)Cc3ccccc3)ccc2O[C@@H]1CN(C)Cc1ccccc1	-7

# An excerpt taken from the entries so far:
mol	NOMO-1 viab
c1ccc(CCNc2ncnc3scc(C4COc5ccccc5O4)c23)cc1 (configuration not stated)	60
Cc1ccc(S(=O)(=O)NCC(=O)Nc2cccc([N+](=O)[O-])c2)cc1	19

# 2 records picked at random from the list so far:
mol	NOMO-1 viab
C[C@H](CO)N1C[C@H](C)[C@@H](CN(C)C)Oc2ccc(NS(=O)(=O)c3ccc(Cl)cc3)cc2C1=O	2
Cc1noc(C)c1NC(=O)Nc1cccc2c1O[C@@H](CN(C)Cc1ccc(C(=O)Nc3ccccc3N)cc1)[C@@H](C)CN([C@H](C)CO)C2=O	14

# (continued)
mol	NOMO-1 viab
COC(NC(=O)c1ccccc1)(C(F)(F)F)C(F)(F)F	14
C[C@@H]1CN([C@@H](C)CO)C(=O)c2cccc(NC(=O)c3ccc(-c4nccs4)cc3)c2O[C@@H]1CN(C)C(=O)Nc1cccc2ccccc12	57
COc1ccc(-c2nc(N(C)c3ccccc3)[nH]c(=O)c2C#N)cc1	2
C[C@@H]1CN([C@@H](C)CO)C(=O)c2cc(NC(=O)NC3CCCCC3)ccc2O[C@H]1CN(C)S(C)(=O)=O	16
C[C@H](CO)N1C[C@H](C)[C@@H](CN(C)S(=O)(=O)c2cn(C)cn2)Oc2c(NC(=O)Nc3ccc(C(F)(F)F)cc3)cccc2C1=O	9
C[C@@H]1O[C@@H](O[C@H]2[C@H](O)[C@@H](O[C@@H]3O[C@H](CO)[C@@H](O)[C@H](O)[C@H]3O)[C@H](O[C@H]3CC[C@@]4(C)C(=CC[C@@H]5C4CC[C@@]4(C)C5C[C@@H]5O[C@]6(CC[C@@](C)(CO)O6)[C@@H](C)[C@@H]54)C3)O[C@@H]2CO)[C@H](O)[C@H](O)[C@H]1O (some centres not stated)	23
CN(CC(=O)Nc1ccc(F)c(Cl)c1)S(=O)(=O)c1ccc2ccccc2c1	14
O=C(c1ccccc1)c1ccc(COC(=O)c2ccccc2NC(=O)c2ccco2)cc1	-7
O=C1c2ccccc2-c2c(NCCc3ccccc3)c(=O)[nH]c3cccc1c23	115*
C[C@@H]1CN([C@H](C)CO)C(=O)c2cc(NS(=O)(=O)c3ccccc3)ccc2O[C@@H]1CN(C)C	-4
C[C@@H]1CN([C@@H](C)CO)C(=O)c2cccc(NC(=O)Nc3ccc4c(c3)OCO4)c2O[C@@H]1CN(C)C	0
C[C@@H]1CCCCO[C@H](CN(C)C(=O)C2CCCCC2)[C@@H](C)CN([C@H](C)CO)C(=O)c2cc(NS(=O)(=O)c3ccc(Cl)cc3)ccc2O1	34
COc1ccc(CN2C(=O)C(O)(CC(=O)c3ccc(Cl)cc3)c3ccccc32)cc1OC (configuration not stated)	112*
C[C@H]1CN([C@@H](C)CO)C(=O)Cc2cc(NC(=O)Cc3cn(C)c4ccccc34)ccc2O[C@H]1CN(C)S(=O)(=O)c1ccc(Cl)cc1	6
C[C@@H]1CN([C@@H](C)CO)C(=O)c2cc(NS(=O)(=O)c3ccccc3)ccc2O[C@H]1CN(C)S(=O)(=O)c1ccc(Cl)cc1	3
COc1ccc(S(=O)(=O)N(C)C[C@@H]2Oc3ccc(N(C)C)cc3C(=O)N([C@H](C)CO)C[C@H]2C)cc1	6
CC(C)c1nnc(N2C(=O)c3oc4ccccc4c(=O)c3C2c2ccco2)s1 (configuration not stated)	32
Cc1noc(C)c1S(=O)(=O)N(C)C[C@@H]1Oc2ccc(NS(=O)(=O)c3ccc(Cl)cc3)cc2C(=O)N([C@H](C)CO)C[C@@H]1C	17
C[C@H]1CN([C@@H](C)CO)C(=O)c2cccc(NC(=O)c3cnccn3)c2O[C@@H]1CN(C)S(=O)(=O)c1ccc(F)cc1	24
Cc1noc(C)c1NC(=O)N(C)C[C@@H]1Oc2c(NC(=O)Nc3ccc(F)cc3)cccc2C(=O)N([C@H](C)CO)C[C@@H]1C	19
Cc1cc(C(=O)Nc2cccc3c2O[C@@H](CN(C)C(=O)NC2CCCCC2)[C@H](C)CN([C@@H](C)CO)C3=O)n(C)n1	9
Cc1ccc(-n2nnnc2SCC(=O)Nc2ccc(N3CCOCC3)c(Cl)c2)cc1C	32
CCN(CC(=O)Nc1ccc(C(F)(F)F)cc1)S(=O)(=O)c1ccc(C)cc1	14
C[C@H]1CN([C@@H](C)CO)C(=O)c2cc(NC(=O)NC3CCCCC3)ccc2O[C@H]1CN(C)Cc1ccc(Cl)c(Cl)c1	21
c1ccc(-c2ccc3c(n2)CCc2ccccc2-3)cc1	22
O=C(CSc1ncccn1)Nc1ccc(Cl)cc1Cl	16
COc1cc(NC(=O)CSc2nnc(-c3ccncc3)n2C)cc(OC)c1	11
COc1ccc(C(C)=O)c(O)c1	20
C[C@@H]1CN([C@H](C)CO)C(=O)Cc2cc(NS(=O)(=O)c3cccs3)ccc2O[C@@H]1CN(C)Cc1ccc2c(c1)OCO2	15
C[C@H]1CN([C@@H](C)CO)C(=O)c2cccc(NC(=O)NC3CCCCC3)c2O[C@H]1CN(C)Cc1ccc(C(=O)O)cc1	13
COc1ccc(Sc2ccccc2COC(C)=O)c(C(=O)O)c1	4
C[C@H]1CN([C@@H](C)CO)C(=O)Cc2cc(NC(=O)C3CCCCC3)ccc2O[C@@H]1CN(C)C(=O)Nc1ccccc1	-4

# In a second layout: two of the compounds above.
canonical_smiles: COc1ccc(Sc2ccccc2COC(C)=O)c(C(=O)O)c1
- NOMO-1 viab = 4

canonical_smiles: C[C@H]1CN([C@@H](C)CO)C(=O)Cc2cc(NC(=O)C3CCCCC3)ccc2O[C@@H]1CN(C)C(=O)Nc1ccccc1
- NOMO-1 viab = -4

# Going on with the list:
mol	NOMO-1 viab
Cc1ccnc(NS(=O)(=O)c2ccc(NC(=O)c3cccs3)cc2)n1	-12
CC(c1ccccc1)n1c(CCCO)nc2ccccc21 (configuration not stated)	20
CCCCn1cc(SCC(=O)O)c2ccccc21	-14
C[C@H](CO)N1C[C@H](C)[C@H](CN(C)C(=O)Nc2ccc(C(F)(F)F)cc2)Oc2ccc(NS(C)(=O)=O)cc2C1=O	-5
O=C(O)CCCC(=O)Nc1cccc2ccccc12	-1
C[C@@H]1CN([C@H](C)CO)C(=O)Cc2cc(NC(=O)c3ccncc3)ccc2O[C@H]1CN(C)Cc1ccc(C(=O)O)cc1	-11
Nc1sc(-c2ccccc2)c(Cc2ccccc2)c1C(=O)O	37
CN1CCN(c2ccccc2NC(=O)COc2ccc(Cl)cc2)CC1	11
CS(=O)(=O)N(CC(=O)Nc1ccc(Br)cc1)c1ccc(Cl)c(C(F)(F)F)c1	27
CCc1nc2sc(C)c(C)c2c(=O)n1N	22
Cc1noc(C)c1S(=O)(=O)Nc1ccc2c(c1)CC(=O)N([C@H](C)CO)C[C@H](C)[C@H](CN(C)C(=O)Nc1ccc(F)cc1)O2	18
COc1ccc(NC(=O)N(C)C[C@H]2Oc3ccc(NC(=O)Nc4ccccc4)cc3C(=O)N([C@@H](C)CO)C[C@@H]2C)cc1	20
C[C@H]1CN([C@@H](C)CO)C(=O)c2cccc(NC(=O)Nc3ccc4c(c3)OCO4)c2O[C@@H]1CN(C)C(=O)Nc1ccccc1	17
Cc1ccc(S(=O)(=O)NC(C)C(=O)Nc2ccc(C)c(Cl)c2)cc1 (configuration not stated)	21
CNC[C@@H]1Oc2c(NC(=O)C3CCOCC3)cccc2C(=O)N([C@@H](C)CO)C[C@H]1C	2
CNC[C@H]1Oc2ccc(NC(=O)Nc3ccc(C(F)(F)F)cc3)cc2C(=O)N([C@H](C)CO)C[C@@H]1C	5
O=C(CSc1nc(-c2ccccc2)cc(C(F)(F)F)n1)Nc1ccccc1Cl	15
C[C@@H]1CN([C@H](C)CO)C(=O)c2cccc(NC(=O)Nc3ccccc3)c2O[C@H]1CN(C)C(=O)Nc1cccc2ccccc12	16
C[C@@H]1CN([C@@H](C)CO)C(=O)c2cccc(NS(=O)(=O)c3ccc(F)cc3)c2O[C@H]1CN(C)C(=O)Nc1ccccc1	42
COc1cc(O[C@@H]2O[C@H](COC3OCC(O)C(O)C3O)[C@@H](O)[C@H](O)[C@H]2O)cc(OC)c1OC (some centres not stated)	-12
C[C@@H]1CN([C@@H](C)CO)C(=O)c2cc(NC(=O)CCCCCC(=O)Nc3ccccc3N)ccc2O[C@@H]1CN(C)Cc1ccncc1	16
C[C@@H]1CN([C@@H](C)CO)C(=O)Cc2cc(NC(=O)Nc3ccccc3)ccc2O[C@@H]1CN(C)C(=O)Nc1cccc2ccccc12	8
C[C@@H]1CN([C@H](C)CO)C(=O)Cc2cc(NC(=O)NC3CCCCC3)ccc2O[C@H]1CN(C)C(=O)Nc1cccc2ccccc12	19
